# Mtb growth – Mycobacterium tuberculosis H37Rv growth inhibition, cell based, confirmatory dose response (AID 1949); most inactive calls were filed without a number and no value below 0 was filed; inhibition, % at 10 µg/mL; hits with a dose series show IC50 in µg/mL; hit rate 1.6% among 100,000;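 active = confirmed in a dose series; inconclusive = about 50% or more but not retested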;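 also: bacteria grown 7 days with compound before Alamar blue readout; 0% = untreated bacteria and 100% = reference antibiotic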
# * marks the source's active call; other numbers are inactive results; i = inactive; ? = inconclusive.
SMILES,Mtb growth
COc1ccc(NC(=O)c2ccccc2N)c(OC)c1,i
COc1cc(C(=S)N2CCCC2)ccc1OC(=O)c1ccc(Cl)cc1,i
COc1ccc(NC(=O)c2cc([N+](=O)[O-])ccc2N2CCNCC2)cc1,i
O=C(Nc1ccc([N+](=O)[O-])cc1)N1CCN(c2cccc(C(F)(F)F)c2)CC1,1.6µg/mL*
Cc1ccc(-c2nc3ccccc3o2)cc1C,i
CCOc1oc(-c2ccc(OC)cc2)nc1C(F)(F)F,i
COc1cccc(N2CC(C(=O)Nc3ccc(Cl)cc3)CC2=O)c1 (stereo not given),i
CCc1ccc(OCC(=O)Nc2ccc(OC)cc2OC)c(Br)c1,i
COC(=O)c1c(NC(=S)N2CCN(c3ccccn3)CC2)sc(C)c1-c1ccccc1,2%
COc1ccc(CC2(CCc3ccccn3)C(=O)NC(=O)N(c3ccccc3C)C2=O)cc1OC (stereo not given),1%
Cc1oc2ccc(OCC(=O)C(C)(C)C)cc2c1C(=O)OC(C)C,13%
CCC(=O)Nc1cc(C(=O)OCc2cccc(F)c2)ccc1C,7%

# Some of the entries so far, as labelled records:
Molecule: Cc1ccc(-c2nc3ccccc3o2)cc1C
  Mtb growth = i

Molecule: COc1cccc(N2CC(C(=O)Nc3ccc(Cl)cc3)CC2=O)c1 (stereo not given)
  Mtb growth = i

Molecule: O=C(Nc1ccc([N+](=O)[O-])cc1)N1CCN(c2cccc(C(F)(F)F)c2)CC1
  Mtb growth = 1.6µg/mL*

# Next part:
SMILES,Mtb growth
CCOC(=O)C1=C(C)N=c2s/c(=C/c3ccccc3)c(=O)n2C1c1ccccc1F (stereo not given),i
OC(c1ccccc1)c1nc2ccccc2n1Cc1ccc(F)cc1 (stereo not given),4%
CCOc1cc(C(=O)Nc2cccc(C(=O)OC)c2)cc(OCC)c1OCC,i
O=C(CSc1ccccc1[N+](=O)[O-])Oc1ccc(Br)cc1,i
Cc1ccc(S(=O)(=O)NC(=O)Oc2cccc3cccnc23)cc1,3.3µg/mL*
Cc1oc2ccc(O)cc2c1C(=O)c1ccc(F)cc1,i
COc1cc(NC(=S)Nc2cc(C(F)(F)F)ccc2Cl)cc(OC)c1,i
O=S(=O)(NCc1cccc2ccccc12)c1ccccc1,2%
CCn1c(SCC(=O)Nc2cccc(Cl)c2Cl)nnc1-c1ccc(OC)cc1,2%
O=C(CCS(=O)(=O)c1ccc(Cl)cc1)NC12CC3CC(CC(C3)C1)C2,3%
CCOC(=O)Cc1cc(=O)[nH]c(/N=C(/NC(=O)c2ccc(-c3ccccc3)cc2)Nc2cccc(Cl)c2C)n1,i
COc1ccc(NC(=O)Nc2cccc([N+](=O)[O-])c2C)cc1OC,i

# Four entries from above in another layout:
> CCc1ccc(OCC(=O)Nc2ccc(OC)cc2OC)c(Br)c1
  Mtb growth: i
> COC(=O)c1c(NC(=S)N2CCN(c3ccccn3)CC2)sc(C)c1-c1ccccc1
  Mtb growth: 2%
> COc1ccc(CC2(CCc3ccccn3)C(=O)NC(=O)N(c3ccccc3C)C2=O)cc1OC (stereo not given)
  Mtb growth: 1%
> Cc1oc2ccc(OCC(=O)C(C)(C)C)cc2c1C(=O)OC(C)C
  Mtb growth: 13%

# The list goes on.
SMILES,Mtb growth
CC1CCc2c(sc(NC(=O)c3sc4ccccc4c3Cl)c2C(N)=O)C1 (stereo not given),i
CN(C)CCNc1nc2ccccc2[nH]1,i
COC(=O)c1ccc(-n2[nH]c(C)cc2=O)cc1,i
O=C(Nc1cccc([N+](=O)[O-])c1)C(Cc1ccccc1)N1C(=O)C2C3CCC(C3)C2C1=O (stereo not given),i
CCN1C(=O)C(O)(c2c(C)[nH]c3ccccc23)c2cc(Br)ccc21 (stereo not given),i
S=C(NCc1cccs1)Nc1ccc2c(c1)OCO2,i
CCOc1ccc(NC(=S)Nc2ccc(C(N)=O)cc2)cc1,14%
O=C(O)CNC(=S)N(Cc1ccccc1)Cc1cccs1,i
Cc1nc(C)n(C(=O)c2cccc([N+](=O)[O-])c2)n1,i
O=C(Nc1cccc(Cl)c1)Nc1ccc(N2CCOCC2)c(C(F)(F)F)c1,3.6µg/mL*
COc1ccc(C)cc1NC(=O)Nc1ccc2c(c1)OCCO2,i
COc1cc(C2C3=C(CC(C)(C)CC3=O)NC3=C2C(=O)CC(C)(C)C3)ccc1OCCc1ccccc1,0%
CC(NS(=O)(=O)c1ccc(F)cc1)C(=O)NCc1ccncc1 (stereo not given),i
COC(=O)c1c(NC(=O)C2CC=CCC2C(=O)O)sc2c1CCC(c1ccccc1)C2 (stereo not given),2%
CCOC(=O)c1ccc(NC(=O)N2CCN(S(C)(=O)=O)CC2)cc1,i
Cc1nc(-c2ccc(C(C)(C)C)cc2)no1,i
O=C(NCc1cccs1)c1cccc2ccccc12,2%
CCCOc1ccc(C2CC(=O)Nc3cc(OC)c(OC)cc32)cc1 (stereo not given),i
COc1ccc(C)cc1NC(=O)CSc1nnc(CNC(=O)c2ccccc2F)n1C,1%
O=C(c1cccc(S(=O)(=O)N2CCCCCC2)c1)N1CCN(c2ccccc2)CC1,i
O=C(Nc1cccnc1)c1ccc2c(c1)C(=O)N(C1CCCCC1)C2=O,i
CCCCn1nnc(NC(=O)c2ccc(-c3cccc(Cl)c3Cl)o2)n1,3%
O=C(Nc1ccccc1C1CC1)C12CC3CC(CC(C3)C1)C2,i
COCCCNC(=O)c1c(NC(=O)COc2ccc(Cl)cc2)sc2c1CCCC2,i
O=S(=O)(Cc1ccc(Cl)cc1)Nc1nc2ccccc2s1,i
Cn1nnnc1SCC(=O)Nc1ncc(S(=O)(=O)c2ccc([N+](=O)[O-])cc2)s1,i
CN(C)c1ccc(C2C=C(c3ccc(Cl)cc3)Nc3nnnn32)cc1 (stereo not given),i
O=C(Cc1ccccc1[N+](=O)[O-])N1CCN(C(c2ccccc2)c2ccccc2)CC1,i
Cc1ccc(-n2ncc(C#N)c2/N=C/N2CCCCCC2)cc1,i
O=c1ccc2ccc(OCc3ccc(F)cc3F)cc2o1,i
COc1cc(C)c(C(C)C)cc1S(=O)(=O)NCc1ccc2c(c1)OCO2,?
COc1cc(S(=O)(=O)NCc2ccc3c(c2)OCO3)ccc1Cl,i
CCc1ccc(OCC(=O)Nc2ccc(S(=O)(=O)N3CCC(C)CC3)cc2)c(Br)c1,i
CC1=C(C(=O)OCC2CCCO2)C(c2ccsc2)C2=C(CC(c3cccs3)CC2=O)N1 (stereo not given),i
CCc1ccc(NC(=O)CSc2nnc(CSCc3ccccc3)n2CC)cc1,i
O=C(Nc1nccs1)c1cn(-c2ccccc2)nc1-c1ccccc1,26%

# The last two entries of the part above are carried over, then new ones follow.
SMILES,Mtb growth
CCc1ccc(NC(=O)CSc2nnc(CSCc3ccccc3)n2CC)cc1,i
O=C(Nc1nccs1)c1cn(-c2ccccc2)nc1-c1ccccc1,26%
N#CCCN(CCC#N)C(=O)c1cccs1,i
CCOc1ccc(NC(=O)NCCN2C(C)CCCC2C)cc1 (stereo not given),i
Cc1ccc(S(=O)(=O)N(CC(=O)N(C)Cc2ccccc2)c2cccc(C)c2C)cc1,i
CCOC(=O)Cc1nnc(NC(=O)CSc2nnc3c4ccccc4n(Cc4ccccc4)c3n2)s1,i
COc1cccc(N(CC(=O)N2CCN(c3cccc(Cl)c3)CC2)S(=O)(=O)c2ccccc2)c1,5%
CC(C)CC(=O)Nc1ccc2oc(-c3ccc(I)cc3)nc2c1,3%
COCCCNCCOc1ccc(Br)cc1C,i
O=C(CC12CC3CC(CC(C3)C1)C2)Nc1ccc(Cl)cn1,6%
COC(=O)C1=CN(C2CCCC2)C=C(C(=O)OC)C1c1ccc(F)cc1,i
O=C(Cc1cccc2ccccc12)Nc1sc2c(c1C(=O)NCC1CCCO1)CCCC2 (stereo not given),i
Cc1c(NC(=S)NCCN2CCOCC2)c(=O)n(-c2ccccc2)n1C,i
COC(=O)Cc1ccc(NC(=O)c2ccc(C(C)(C)C)cc2)cc1,i
Cc1c(C)c2ccc(OCc3ccc(Br)cc3F)cc2oc1=O,3%
COc1cc(OC)c(NC(=O)COc2ccccc2OC)cc1Cl,i
CCc1ccc(OC(=O)c2cccs2)c(Br)c1,?
Cc1cccc(C(=O)Oc2ccccc2[N+](=O)[O-])c1,i
COc1cc(C(=O)N2CCN=C2c2ccccc2)cc(OC)c1OC,15%
CCOC(=O)Cc1nc2ccccc2[nH]1,8%
CC1=CC(C)(C)N2C(=O)C(=O)c3cc(OC(=O)c4ccccc4C)cc1c32,8.2µg/mL*
Cc1ccc(S(=O)(=O)N(CC(=O)N2CCC(C(N)=O)CC2)Cc2cccc(Cl)c2)cc1,i
CCc1nnc(NC(=O)CSc2nc(=O)cc(N)n2-c2ccccc2)s1,2%
CCC(=O)Nc1ccc(C(=O)Nc2cc(Cl)ccc2O)cc1,1%
NC(=O)c1ccc(NC(=O)CN2C(=O)c3ccccc3C2=O)cc1,i
COc1ccc(-c2nnc(N3CCOCC3)c3ccccc23)cc1,i
Cn1c(=O)c2cn3c(c2n(C)c1=O)C(c1ccccc1)CC(c1ccccc1)=N3 (stereo not given),0%
COc1ccc(Cc2nnc(NC(=O)CC(C)c3ccccc3)s2)cc1 (stereo not given),0%
CCn1c(SCC(=O)c2ccccc2)nnc1-c1ccncc1,i
Cc1cccc(NC(=O)COc2c(C)cccc2C)c1C,9%
COc1ccc(NC(=O)NCc2ccncc2)cc1,i
COC(=O)c1cccc(NC(=S)Nc2cc(C)ccn2)c1,i
CC(NC(=O)c1ccccc1NC(=O)CCSc1ccccc1)c1ccccc1 (stereo not given),3%
COc1cc(S(=O)(=O)N2CCN(c3cc(Cl)ccc3Cl)CC2)ccc1Cl,1%
COc1cc(OC)cc(C(=O)NC(=S)Nc2ccc(-c3nc4cc(C(C)C)ccc4o3)cc2)c1,i
COC(=O)c1c(NC(=O)c2ccco2)sc(C)c1-c1ccccc1,9%
C/C=C/c1ccccc1NC(=O)c1ccc(C)cc1,38%
Cc1ccc(NC(=O)CSC2CC(=O)N(c3ccc(Cl)cc3)C2=O)cc1 (stereo not given),i
O=S(=O)(Nc1cccc2cn[nH]c12)c1ccc(F)cc1,i
COc1ccc(-n2c(SC)nc3scc(-c4ccc(Cl)cc4)c3c2=O)cc1,5%
O=C(Nc1ncn(Cc2ccccc2Cl)n1)c1cccc(Cl)c1,i
COC(C(=O)Nc1ccc(S(=O)(=O)Nc2ccc(Cl)cc2)cc1)c1ccccc1 (stereo not given),5%
O=C(CN(CCc1ccccc1)S(=O)(=O)c1cc(Cl)ccc1Cl)N1CCCC1,i
N#CCCn1cc(/C=C(/C#N)C(N)=S)c(-c2ccc(-c3ccccc3)cc2)n1,i
S=C(NCC1CCCO1)Nc1ccn(C23CC4CC(CC(C4)C2)C3)n1 (stereo not given),1%
O=C(C(=S)N1CCOCC1)c1c[nH]c2ccccc12,i
Cn1c(=O)c2c(nc(N3CCN(c4ccccn4)CC3)n2Cc2ccccc2Cl)n(C)c1=O,i
CC(=O)c1ccc(NC(=O)NNC(=O)Cc2cccs2)cc1,i
NS(=O)(=O)c1ccc(NC(=O)c2cc(-c3ccc(Cl)c(Cl)c3)nc3ccccc23)cc1,i
COc1cc(NC(=O)CC23CC4CC(CC(C4)C2)C3)ccc1NC(=O)C(C)C,2%
COc1ccc(CC(=O)n2nc(NCc3cccs3)nc2NCc2cccs2)cc1OC,i
COc1cc(OC)c(NC(=S)Nc2ccc(Br)cc2Cl)cc1Cl,i
COc1ccc(NC(=O)c2ccco2)cc1NC(=O)CSc1ccc(Cl)cc1,19%
CC(=O)c1ccc(NC(=O)CSc2ncnc3c2sc2nc4c(cc23)COC(C)(C)C4)cc1,i
CN1CCC(OC(=O)COc2ccc(Cl)cc2Cl)CC1,i
Cc1ccc(N(CC(=O)NC2CCCC2)S(=O)(=O)c2ccc(Cl)cc2)cc1C,i
COc1ccc(C(=O)Nc2ccccc2)cc1S(=O)(=O)Nc1ccc2c(c1)CCC2,i
CCC(C)n1c(=N)c(C(=O)NC)cc2c(=O)n3ccccc3nc21 (stereo not given),i
CCC(C)N1CCN(C(=O)c2ccco2)CC1 (stereo not given),i
COc1cccc2cc(C(=O)NC3=C(C#N)CCC3)c(=O)oc12,33%
CC(C)(C)c1ccc(OC2=CS(=O)(=O)c3ccccc32)cc1,0%
COC(=O)c1c(N)sc2c1CC(C)(C)OC2,i

# A draw from above in order of SMILES length, highest first.
SMILES,Mtb growth
COc1ccc(C(=O)Nc2ccccc2)cc1S(=O)(=O)Nc1ccc2c(c1)CCC2,i
Cc1ccc(N(CC(=O)NC2CCCC2)S(=O)(=O)c2ccc(Cl)cc2)cc1C,i
COc1ccc(CC(=O)n2nc(NCc3cccs3)nc2NCc2cccs2)cc1OC,i
CN1CCC(OC(=O)COc2ccc(Cl)cc2Cl)CC1,i
COC(=O)c1c(N)sc2c1CC(C)(C)OC2,i

# Going on with the list:
SMILES,Mtb growth
CC(=O)Oc1cc(C)c2c(c1)oc(=O)c1ccccc12,i
CC1=C(C(=O)Nc2ccccn2)C(c2ccc(Cl)cc2Cl)C2=C(CC(C)(C)CC2=O)N1 (stereo not given),2%
Cc1noc(NS(=O)(=O)c2ccc(NC(=O)c3sc4ccccc4c3Cl)cc2)c1C,i
O=C(Nc1ccccc1)c1ccc(S(=O)(=O)NCc2ccco2)cc1,1%
COc1ccc(NS(=O)(=O)c2ccc(NC(=O)CSc3ccccc3)cc2)cc1,i
CC(=O)Nc1ccc(NC(=O)CN(c2ccccc2F)S(=O)(=O)c2ccc(C)cc2)cc1,i
O=[N+]([O-])c1cccc(-c2noc(/C=C/c3ccccc3Cl)n2)c1,i
O=C(Nc1ccc(O)cc1)c1ccc2c(c1)C(=O)N(Cc1cccnc1)C2=O,i
CCn1c(CC(=O)Nc2cccc(OC)c2)nnc1SCC(=O)Nc1ccc([N+](=O)[O-])cc1C,2%
CSc1ccccc1NC(=O)CN(c1ccccc1Cl)S(=O)(=O)c1ccc(C)cc1,i
O=C(NCc1cccnc1)c1cnn2c(C(F)F)cc(-c3ccccc3)nc12,i
COc1ccc(N2CCN(S(=O)(=O)c3cc(C)c(Cl)cc3C)CC2)cc1,i
CC1CCc2nc(NC(=O)CN3CCN(c4ccccc4)CC3)sc2C1 (stereo not given),?
Cc1cc(=O)oc2cc3occ(-c4ccc(Cl)cc4)c3cc12,i

# Screening results from PubChem BioAssay.

# The list is partial; count on the stated rates, not on these rows.
